Source: PubChem BioAssay
Bfl-1 A1 inh: caspase 3/7 activation in MEF A1-2A-BIM cells, primary screen, A1 inhibitor project, cell-based, luminescence, HTS. Caspase-Glo 3/7 luminescence, 3 h; percent of clofoctol response, vehicle zero. caspase activation, % (no concentration beside the values). 330,000 compounds, 0.066% hits. AID 2462, 2010;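 active = over half of replicate activation scores above 10%, or exactly half above 10 with the replicate mean above 10; inconclusive = replicate mean below 10 yet half the replicates above 10; inactive = over half of replicates below 10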;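 also: wells of about 30 µL received 50 nL stock; many hits fall short of the cut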
Vif A3G: inhibitors of Vif binding to APOBEC3G peptide, primary screen, biochemical, TR-FRET, GST-Vif 1-94, biotin-A3G peptide, dose response retest (AID 1117319). Virion infectivity factor (Human immunodeficiency virus type 1 group M subtype B (isolate …. TR-FRET GST-Vif / biotin-A3G peptide binding; higher % means a stronger effect; test concentration not given here; strong numbers were not always called active. inhibition, %; hits with a dose series show IC50 in µM. 260,000 compounds, 0.57% hits;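 active = above the screen mean plus three standard deviations and confirmed in dose response; inconclusive = results disagree or hit not tested in dose response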;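 also: Vif residues 1-94 fused to GST binding biotinylated APOBEC3G peptide 110-148; 0% = full assay without inhibitor and 100% = GST in place of GST-Vif; retest series ran down from 100 µM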
T cruzi inh: inhibitors of intracellular T. cruzi growth, primary screen, luminescence, NIH3T3 host cells; T. cruzi beta-gal in NIH3T3, 90 h; inhibition, % (test concentration not listed); 300,000 compounds, 1.4% hits;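 active = mean inhibition across valid replicates above about 55%, limit read from the data; inconclusive = mean below that limit but half or more replicates reach it; inactive = mean below it, under half of replicates reach it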;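 also: signal also drops with host cell toxicity which is not excluded here; 0% = plate median of DMSO wells and 100% = zero luminescence signal; higher percent means less beta-gal luminescence so fewer parasites; stock transfer was 50 nL into about 50 µL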
RanGTP-Impb inh: inhibitors of RanGTP-importin-beta interaction, primary screen, biochemical, FRET, CFP-Ran, YFP-importin-beta, homogeneous; Ran GTPase (GTP-bound) - importin-beta complex; 300,000 compounds, 1.1% hits; inhibition, % (no concentration beside the values); cell-free CFP-Ran/YFP-importin-beta FRET ratio;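 active = most replicates above 15%; inconclusive = exactly half above 15%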;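 also: 0% = DMSO wells and 100% = Ran loaded with GDP instead of GTP; wells of about 40 µL received 100 nL stock; the first replicate is given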
Calb FLC: C. albicans growth inhibition with fluconazole, primary screen, CaCi-2 strain, Alamar Blue fluorescence. C. albicans CaCi-2 (fluconazole-resistant clinical isolate) + fluconazole, 48 h. 300,000 compounds, 0.57% hits. growth inhibition, % (test concentration not listed);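 active = most replicates above 75%; inconclusive = exactly half above 75%; inactive = most below 75%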;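 also: all wells also contain fluconazole at 8 µg/ml as a sub-toxic cotreatment; 0% = median of DMSO wells and 100% = median of geldanamycin control wells; wells of about 8 µL received 7.5 nL stock; the first replicate is given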
MLL AF4-AF9 inh: inhibitors of AF4 peptide binding to AF9, primary screen, biochemical, AlphaScreen, biotin-AF4 peptide, FLAG-AF9, single point; AID 651704, 2012; inhibition, % at 10 µM; Protein AF-9 (Homo sapiens), P42568; 350,000 compounds, 0.47% hits;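 active = every replicate reaching a set inhibition limit, whatever the replicate mean, cut at about 25% in these data; inconclusive = mean inhibition reaches that limit but some replicates miss it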;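 also: 0% = plate neutral control median and 100% = total signal loss; the record names both 10 and 1 µM as test concentration; the first replicate is given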
Target sequence (P42568 whole entry, looked up): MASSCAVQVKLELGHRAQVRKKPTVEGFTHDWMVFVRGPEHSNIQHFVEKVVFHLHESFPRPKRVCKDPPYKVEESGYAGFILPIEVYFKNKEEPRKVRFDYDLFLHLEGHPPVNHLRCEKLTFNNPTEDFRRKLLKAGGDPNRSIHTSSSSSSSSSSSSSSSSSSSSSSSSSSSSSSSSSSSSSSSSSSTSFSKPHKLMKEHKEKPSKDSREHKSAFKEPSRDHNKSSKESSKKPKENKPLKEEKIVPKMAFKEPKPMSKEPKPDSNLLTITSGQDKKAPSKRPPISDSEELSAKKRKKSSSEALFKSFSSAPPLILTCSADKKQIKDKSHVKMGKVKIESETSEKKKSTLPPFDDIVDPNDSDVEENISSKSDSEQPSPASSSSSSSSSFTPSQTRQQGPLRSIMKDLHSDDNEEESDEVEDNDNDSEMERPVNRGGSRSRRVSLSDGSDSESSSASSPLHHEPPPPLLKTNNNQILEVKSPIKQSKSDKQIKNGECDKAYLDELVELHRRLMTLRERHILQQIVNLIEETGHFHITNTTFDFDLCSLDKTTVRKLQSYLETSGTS
Beta apoptosis: inhibitors of cytokine-induced beta cell apoptosis, primary screen, luminescence. INS-1E cytokine-induced death, ATP luminescence, 48 h; percent of positive-control rescue, neutral wells zero. protection from apoptosis, % (test concentration not listed). 300,000 compounds, 0.8% hits. AID 435005, 2010;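 active = all replicates at 75% or more, or half of them and the mean; inconclusive = half reach 75% but not the mean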;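 also: 0% = cytokine-treated negative control wells and 100% = positive control rescue; higher means more ATP so stronger rescue from cytokine killing; wells of about 40 µL received 100 nL stock; the first replicate is given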
rRNA inh HTS: reduced GFP signal of wild-type E. coli, primary screen, bacterial rRNA inhibitor project, GFP/RFP fluorescence, OD600, single point. AID 720706, 2013. E. coli WT GFP vs humanized-ribosome RFP mutants, 24 h; active compounds read low; DMSO median 0, no signal -100. GFP signal change (wild-type ribosome), % (test concentration not listed). 350,000 compounds, 1.6% hits;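 active = significant combined selectivity score with lowered wild-type GFP, culture density cut under 30%, mutant RFP and density less affected; inactive = any of these conditions unmet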; also: one replicate is shown; some compounds called inactive have numbers as strong as hits
rRNA inh HTS OD600: also measured in rRNA inh HTS; calls as there; OD600 change, %; measured here: OD600 growth;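 optical density of the mix in the first replicate; 0 = DMSO median and -100 = no signal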
rRNA inh HTS RFP: recorded beside rRNA inh HTS, whose call it bears; RFP signal change, %; measured here: RFP humanized mutant strains;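 first replicate; 0 = DMSO median and -100 = no signal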
* = called active by the depositor; ? = inconclusive; / = no result given; & = joins results of further samples.

Sample of the layout:
SMILES	Bfl-1 A1 inh	Vif A3G	T cruzi inh	RanGTP-Impb inh	Calb FLC	MLL AF4-AF9 inh	Beta apoptosis	rRNA inh HTS	rRNA inh HTS OD600	rRNA inh HTS RFP
Cc1cc(C)cc(OCC(=O)Nc2cccc(-c3nc4ncccc4o3)c2)c1	0.1	-3%	0	7.7	1	-5.0	-1	4	6	0.5
CC(NS(=O)(=O)c1c(N)n(C)c(=O)n(C)c1=O)c1ccccc1 (centres undefined)	-0.2	-2%	-9	/	/	-1.4	-6	5	4	-0.4
O=[N+]([O-])c1ccc(/C=C/c2ccc3cccc(O)c3n2)cc1	-5.2	/	-5	2.3	-1	0.6	20	0	-3	-6.6
Cc1nc(-c2ccc(Cl)cc2)sc1C1(C)CC(c2ccccc2Br)=NO1 (centres undefined)	0.2	/	3	3.4	14	1.4	-5	-2	-3	5.7
Cc1c(C(=O)NC(=S)NCc2cccnc2)oc2ccccc12	0.1	-8%	63*	-1.6	?	-4.3	4	-12	-14	-9.3
CCc1nnc(NC(=O)c2ccc(S(=O)(=O)N(CC)Cc3ccccc3)cc2)o1	-0.8	?	-4	3.1	65	/	3	/	/	/
C(=C\c1ccco1)/C1=NN(c2ccccc2)C(c2ccco2)C1 (centres undefined)	-0.5	?	-9	-39	-11	/	9	/	/	/
CC(=O)NC(c1cccs1)c1cc(Cl)c2ccccc2c1O (centres undefined)	-0.6	/	/	/	/	1.5	-7	46	-31	-17
Cc1ccc(S(=O)(=O)c2c(C)cc(C)nc2Oc2cccc(C(F)(F)F)c2)cc1	0.3	15%	21	2.5	-3	/	-6	/	/	/

All compounds of this part, repeating the preview:
SMILES	Bfl-1 A1 inh	Vif A3G	T cruzi inh	RanGTP-Impb inh	Calb FLC	MLL AF4-AF9 inh	Beta apoptosis	rRNA inh HTS	rRNA inh HTS OD600	rRNA inh HTS RFP
Cc1cc(C)cc(OCC(=O)Nc2cccc(-c3nc4ncccc4o3)c2)c1	0.1	-3%	0	7.7	1	-5.0	-1	4	6	0.5
CC(NS(=O)(=O)c1c(N)n(C)c(=O)n(C)c1=O)c1ccccc1 (centres undefined)	-0.2	-2%	-9	/	/	-1.4	-6	5	4	-0.4
O=[N+]([O-])c1ccc(/C=C/c2ccc3cccc(O)c3n2)cc1	-5.2	/	-5	2.3	-1	0.6	20	0	-3	-6.6
Cc1nc(-c2ccc(Cl)cc2)sc1C1(C)CC(c2ccccc2Br)=NO1 (centres undefined)	0.2	/	3	3.4	14	1.4	-5	-2	-3	5.7
Cc1c(C(=O)NC(=S)NCc2cccnc2)oc2ccccc12	0.1	-8%	63*	-1.6	?	-4.3	4	-12	-14	-9.3
CCc1nnc(NC(=O)c2ccc(S(=O)(=O)N(CC)Cc3ccccc3)cc2)o1	-0.8	?	-4	3.1	65	/	3	/	/	/
C(=C\c1ccco1)/C1=NN(c2ccccc2)C(c2ccco2)C1 (centres undefined)	-0.5	?	-9	-39	-11	/	9	/	/	/
CC(=O)NC(c1cccs1)c1cc(Cl)c2ccccc2c1O (centres undefined)	-0.6	/	/	/	/	1.5	-7	46	-31	-17
Cc1ccc(S(=O)(=O)c2c(C)cc(C)nc2Oc2cccc(C(F)(F)F)c2)cc1	0.3	15%	21	2.5	-3	/	-6	/	/	/
CNc1nccc(-c2ccc(Cl)cc2)c1C#N	0.2	-8%	1	2.6	-25	-4.6	2	7	1	-8.8
C=CCC(CC=C)(NC(=O)c1ccccc1)c1ccccc1	0.5	?	9	-0.1	2	/	0	/	/	/
CCOC(=O)C1=C(C)N(c2ccccc2)C(=O)/C1=C\c1ccco1	-0.6	?	16	?	3	/	2	/	/	/
S=C(NC1CCCC1)N1CCN(c2ccc(Cl)cc2)CC1	1.2	-15%	-4	2.4	23	0.0	-5	-34	-52	-5.8
COCCOC(=O)C1=C(C)N(c2ccccc2)C(=S)NC1c1ccccc1C(F)(F)F (centres undefined)	2.1	10%	10	0.2	28	6.7	-7	-18	-22	-5.2
CCOC(=O)Cc1nnc(NC(=O)CSc2ccc(Cl)cc2)s1	/	-6%	0	-0.1	55	/	-9	/	/	/
COc1ccccc1OCC(=O)Nc1ccc(S(=O)(=O)N2CCOCC2)cc1	0.1	/	7	2.9	2	-1.1	5	-1	4	2.4
CN(C)C(=O)CN(c1ccc2c(c1)OCO2)S(C)(=O)=O	2.5	7%	-7	1.9	-3	-2.4	-9	13	13	8.3
Cc1nn(C2CCS(=O)(=O)C2)c(C)c1CN(C)C(=O)c1ccccc1 (centres undefined)	0.5	-3%	/	/	/	-1.3	-1	20	18	3.9
COc1ccc2c(=O)c3c(=O)n(-c4ccc(C)cc4)c(-c4ccccc4)nc3oc2c1	-0.2	95%	9	3.0	4	/	3	/	/	/
CCCCNC(c1ccccc1)c1ccncc1 (centres undefined)	-0.1	0%	-18	?	-9	4.9	-5	17	4	1.2
Cc1ccc(N(C(=O)CCC(=O)Nc2nccs2)C(C(=O)NC(C)(C)C)c2ccc(O)cc2)cc1 (centres undefined)	-1.3	3%	16	1.1	1	1.5	-1	17	16	-0.3
C=CCNc1nc(-c2cccs2)c(CC(=O)O)s1	-0.5	31%	-4	-4.2	-2	0.1	-1	12	5	2.4
Cn1c2c(c(=O)n(C)c1=O)C(c1ccccc1Cl)CC(=O)N2 (centres undefined)	0.9	4%	-4	5.6	6	-5.1	/	6	6	1.2
COc1ccc(/C=C2\CCn3c2nc2cc(C(=O)O)ccc2c3=O)cc1O	0.0	/	1	0.0	1	/	-2	/	/	/
CC(C)OCCCn1c(=N)c(S(=O)(=O)c2ccccc2)cc2c(=O)n3ccccc3nc21	0.4	/	-17	-3.4	6	-0.3	1	3	17	-1.3
COc1ccc(C(CNC(=O)COc2ccccc2-c2ccccc2)N2CCOCC2)cc1 (centres undefined)	?	/	16	-2.0	-6	1.6	7	-41	-62	-4.1
Cn1c(=O)cc(SCC(=O)Nc2ccccn2)c2ccccc21	0.3	-10%	-7	1.0	0	/	-9	/	/	/
Cc1nnc(N(C)C(=O)c2ccccn2)s1	0.3	0%	-17	1.9	-9	/	4	/	/	/
C=CCc1cc(OC)ccc1OCC(O)CN1CCN(c2ccc(OC)cc2)CC1 (centres undefined)	0.5&0.3	3%&12%	22&-1	0.3&-0.8	-14&-33	21	-1	-30	-31	-4.5
Nc1c(S(=O)(=O)O)cc(NC(=O)c2ccccc2)c2c1C(=O)c1ccccc1C2=O	0.5	13%	-14	-3.1	10	/	9	7	7	5.0
CCc1cc(=O)[nH]c(SCC(=O)Nc2cc(C)on2)n1	1.0	-5%	-14	1.9	5	0.2	/	12	5	-0.2
Cc1ccc(NC(=O)[C@@H](C)NC(=O)[C@@H]2Cc3ccccc3CN2)cc1	-0.7	/	0	-4.5	?	-2.2	-4	1	8	-4.3
COc1ccc(C2/C=C\CN(S(=O)(=O)c3cccs3)CC(=O)N2Cc2ccc(F)cc2)cc1 (centres undefined)	1.4	/	20	?	15	0.1	-5	0	2	0.0
c1ccc(-c2nc3cc4ccccc4cc3[nH]2)nc1	-7.6	-3%	-4	-0.1	49	/	44	/	/	/
CCN(CC)C(=O)CSc1nc(O)c(Cc2ccccc2)c(=O)n1-c1ccccc1	0.4	-7%	-1	-1.4	-2	/	7	/	/	/
COc1cc([C@H]2OC[C@H]3[C@@H]2CO[C@@H]3c2ccc(O[C@H]3O[C@H](CO)[C@@H](O)[C@H](O)[C@H]3O)c(OC)c2)ccc1O[C@@H]1O[C@H](CO)[C@@H](O)[C@H](O)[C@H]1O	2.4	/	/	/	/	-1.9	-1	10	12	-3.7
O=C(COC(=O)c1ccco1)NCC1CCCO1 (centres undefined)	0.7	-3%	11	?	-7	/	-2	/	/	/
COc1ccc(OCC(=O)N2CCN(C(=O)COc3ccc(Br)cc3)CC2)cc1	0.6	-4%&-15%	12	4.8	2	/	-6	/	/	/
c1csc(Cn2c(-c3cccs3)nc3ccccc32)c1	0.4	-32%	-2	-3.0	18	/	-5	-13	-5	-3.3
Cc1onc(-c2ccccc2)c1C(=O)NC(C)C1CCCO1 (centres undefined)	-0.4	-4%	-17	6.6	1	/	4	/	/	/
Cc1cccc(CCNC(=O)C2CCCN(c3ncnc4c3nc3n4CCCCC3)C2)c1 (centres undefined)	0.4	/	19	2.6	7	2.4	5	-1	-17	2.6
O=C(c1ccc(F)cc1)c1ccc(N2CCCCC2)cc1	-0.5	-7%	10	?	-23	-0.4	-1	-26	-24	3.4
C=CCN1C(=O)CN=C1Nc1cc(C)cc(C)c1	0.5	-3%	-1	?	16	/	-9	/	/	/
Cc1ccc(C(=O)N2CCN(c3ccc([N+](=O)[O-])cc3-n3cccc3)CC2)cc1	-0.1	/	26	-1.4	-4	/	-1	-10	-19	4.9
CC12CC3(C)CC(C)(C1)CC(C(N)=O)(C2)C3	0.6	-9%	-6	3.1	-2	-16	-1	6	2	4.0
COc1cccc(-c2csc3nnc(SCC(=O)c4ccc(NC(C)=O)cc4)n23)c1	0.4	3%&-16%	/	4.0	19	-1.2	7	8	3	-6.9
O=C(CCc1nc(-c2ccccn2)no1)NCc1ccc2c(c1)OCO2	0.2	0%	-20	2.4	-5	1.0	-6	12	8	0.9
CCOC(=O)Nc1nc(-c2ccc(F)cc2F)cs1	0.5	9%	-1	?	-4	1.9	8	-4	-2	-5.1
COc1ccc(/C=C2\SC(=S)N(CCCC(=O)NC3CCCC3)C2=O)cc1OC	-0.4	/	2	1.7	-4	0.5	-17	3	13	1.2
Nc1cc(Nc2ccc(Br)cc2)nc(N)n1	-1.1	1%	24	?	1	/	6	-44*	-18*	-11*
COc1ccccc1NC(=O)Nc1ccc(N2CCOCC2)cc1	-6.4	/	-5	?	-1	2.0	4	11	11	2.2
Cc1ccn2cc(CNS(=O)(=O)c3ccc4ccccc4c3)nc2c1	0.7	6%	0	4.0	-2	-4.5	-5	-5	-4	0.0
COc1ccc(C(=O)Nc2ccc3c(c2)nc(CN2CCCC2)n3C)cc1	-0.1	15%	-14	1.5	33	-1.6	1	8	3	-10

This is a subset; count on the stated rates, not on these rows.
